Lassa entry inh: Lassa virus entry inhibition | Lassa virus pseudotype entry inhibition, cell reporter; control for the full effect not named in the record | Potency, µM (highest dose often 37.9 µM), inactives show top-dose activity change, negative = inhibition, usual class: inhibitors | 300,000 compounds, 1.2% hits | AID 540256; active means well fitted inhibition curve with a large enough effect; inconclusive means small, poorly fitted or top-dose-only effect, or effect the other way; inactive means flat fitted curve, though single readings scatter; tested in HEK293 cells; also: % is scaled to controls: 0 for no effect and ±100 for the full control effect; nearly all actives have a fitted effect of over 50% in size; luciferase read-out
RE007 growth inh: less growth of the S. pombe RE007 Vpr strain. S. pombe RE007 Vpr strain, BacTiter-Glo ATP luminescence, 24 h; control for the full effect not named in the record. Potency, µM (titrated, usually from 92.2 µM), for the others: at the top dose activity change, negative = less growth. 360,000 compounds, 0.21% hits; active = well fitted falling curve with a large enough effect; inconclusive = small, poorly fitted or top-dose-only effect; inactive = no such curve, though single readings can be large or run the other way;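 also: % is scaled to controls: 0 for no effect and ±100 for the full control effect; nearly all actives have a fitted effect of over 50% in size; the assay follows cell death caused by Vpr and the record does not say whether a fall means rescue or toxicity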
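Fission yeast RE007 carrying one integrated HIV-1 vpr copy, seeded at OD 0.01 in PMG+AL medium with 23 nL pinned compound. Grown 24 h at 30 degrees; viability read by BacTiter-Glo luminescence after 5 min.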
Cruzain Triton: blocks cruzain activity in presence of Triton detergent; P25779; purified cruzain, Z-FR-AMC fluorescence, 0.01% Triton; Potency, µM, inactives show max response, negative = inhibition, most hits filed as inhibitors; 200,000 compounds, 0.43% hits;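 also: plate controls were neutral wells for no effect and buffer without enzyme for full effect; nearly all actives have a fitted effect of over 40% in size; top concentration of the series not given in the record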
Target sequence (P25779 123-467 limits assumed): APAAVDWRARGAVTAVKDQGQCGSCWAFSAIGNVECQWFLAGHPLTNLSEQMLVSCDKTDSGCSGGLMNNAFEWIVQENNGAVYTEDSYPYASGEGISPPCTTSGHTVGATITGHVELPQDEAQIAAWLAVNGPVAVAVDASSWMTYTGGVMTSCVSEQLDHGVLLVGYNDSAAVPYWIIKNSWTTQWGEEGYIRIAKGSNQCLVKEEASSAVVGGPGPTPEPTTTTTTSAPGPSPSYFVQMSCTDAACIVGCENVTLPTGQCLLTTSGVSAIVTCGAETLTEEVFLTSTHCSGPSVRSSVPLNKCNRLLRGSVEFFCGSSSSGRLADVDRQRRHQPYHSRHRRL
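Enzyme 1.5 nM, Z-FR-AMC 2 uM, NaOAc 100 mM pH 5.5, DTT 5 mM, Triton X-100 0.01%; 15 min RT compound preincubation; kinetic ex360/em450, 60 s delta.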
MARV entry inh: blocks Marburg virus binding to or entry into cells; Marburg virus pseudotyped entry inhibition, cell reporter; control for the full effect not named in the record; about a third of the inactives were read at about 46 µM; Potency, µM (highest dose often 37.8 µM), inactives show at the top dose activity change, negative = inhibition, actives largely listed as inhibitors; 300,000 compounds, 1.8% hits; AID 540276; active = well fitted inhibition curve with a large enough effect; inconclusive = small, poorly fitted or top-dose-only effect, or effect the other way; inactive = flat fitted curve, though single readings scatter; tested in HEK293 cells; about a fifth of its hits are not listed in these tables; also: % is scaled to controls: 0 for no effect and ±100 for the full control effect; luciferase read-out
Cruzain noTriton: blocks cruzain activity in detergent-free assay; purified cruzain, Z-FR-AMC fluorescence, no detergent; Potency, µM, for inactives: max response, negative = inhibition, usual class: inhibitors; 200,000 compounds, 2.3% hits;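 also: plate controls were enzyme without inhibitor for no effect and buffer without enzyme for full effect; nearly all actives have a fitted effect of over 40% in size; top concentration of the series not given in the record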
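Purified cruzain at 1.5 nM, pre-incubated 15 min with compound at room temperature in 100 mM sodium acetate pH 5.5, 5 mM DTT, 0.00005% Triton X-100. Reaction started with 2 uM Z-FR-AMC; AMC fluorescence increase over 60 s gives rate.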
NS1 inh: blocks influenza NS1 protein function | S. cerevisiae slowed by influenza A NS1, growth recovery by OD600 | Potency, µM (series often up to 46.1 µM), without a hit: at the top dose activity, positive = more growth | 270,000 compounds, 0.4% hits | AID 2326; active means well fitted rising curve with a large enough effect; inconclusive means small, poorly fitted or top-dose-only effect; inactive means no such curve, though single readings can be large or run the other way; also: nearly all actives have a fitted effect of over 50% in size
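A cell-based growth assay was used: compounds that relieve NS1-induced slow growth of budding yeast raise OD600. Assay medium was yeast nitrogen base with ammonium sulphate and -URA supplement, pH 6.0, with 2% galactose.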
SARS PLP yeast: inhibitors of SARS-CoV papain-like protease in yeast; S. cerevisiae expressing SARS-CoV PLpro, growth rescue; control for the full effect not named in the record; Potency, µM (doses to about 32.9 µM), without a hit: top-dose activity, positive = growth rescue; AID 485353; 330,000 compounds, 0.19% hits; active means well fitted rising curve with a large enough effect; inconclusive means small, poorly fitted or top-dose-only effect; inactive means no such curve, though single readings can be large or run the other way; also: 0% is about no effect; nearly all actives have a fitted effect of over 55% in size; growth read by luminescence after 48 h
2A StopGo: lowers the luciferase signal of an FMDV 2A StopGo reporter; AID 1159524; human cells with a luciferase reporter of 2A StopGo recoding; control for the full effect not named in the record; Potency, µM (doses to about 57.9 µM), for inactives: at the top dose signal change, negative = less light; 410,000 compounds, 1.2% hits; active = well fitted falling curve with a large enough effect; inconclusive = small, poorly fitted or top-dose-only effect; inactive = no such curve, though single readings can be large or run the other way; tested in HEK293T cells; also: % is scaled to controls: 0 for no effect and ±100 for the full control effect; nearly all actives have a fitted effect of over 45% in size; luciferase light after 4 h
* marks the source's active call; other numbers are inactive results; ? = inconclusive; . = no result given; & = joins results of further samples; [ ] = dose if it differs, or a comment. Unless noted, calls follow the shape of the dose curve; as a rule, active = well fitted curve in the direction sought with a large enough effect; inconclusive = small, poorly fitted or top-dose-only effect, or another doubt; inactive = no such curve, though single readings can be large; an effect the other way counts as inactive or inconclusive. Potency is read from the fitted curve at half-maximal effect.

SMILES | Lassa entry inh | RE007 growth inh | Cruzain Triton | MARV entry inh | Cruzain noTriton | NS1 inh | SARS PLP yeast | 2A StopGo
COc1ccc(S(=O)(=O)Nc2ccc(NC(C)=O)cc2)cc1 | ? | 4% | -1.3% | 11% | -4% | -3% | -8% | -2%
CCOc1ccccc1OCC(=O)Nc1cccc(S(=O)(=O)N2CCCCCC2)c1 | ? | 4% | . | ? | . | . | 1% | -41%
COc1ccc(C(=O)c2no[n+]([O-])c2C(=O)c2ccc(OC)cc2)cc1 | ? | ? | -27% | -14%&-14% | -20% | -240% | -38% | 40µM*
COCCN(C(=O)c1csnn1)C(C(=O)NC(C)(C)C)c1cccc(OC)c1 (centres undefined) | 2% | 12% | 4.5% | 0%&0%[46.1 µM] | -13% | -1% | 12% | 8%
O=c1cc(-c2c(F)c(F)c(F)c(F)c2F)oc2c(F)c(F)c(F)c(F)c12 | . | . | 1.3% | -7% | -10% | -199% | -15% | .
COc1cccc(CNC(=O)COc2cccc3c2OC(C)(C)C3)c1 | ? | 16% | . | 5% | . | . | 0% | -34%
COc1cc(C2c3c(-c4ccccc4O)n[nH]c3C(=O)N2CCO)ccc1OCC(C)C (centres undefined) | ? | . | -6.2% | ? | 9% | . | . | -26%
COc1ccc(C(=O)N2CCCC(N3CCN(c4ccccc4OC)CC3)C2)c(OC)n1 (centres undefined) | . | 1% | . | . | . | 0% | -5% | 3%
COc1ccc(C=NNC(=O)NN=Cc2ccc(OC)c(OC)c2)cc1OC | ? | -8% | . | ? | . | . | . | 12%
Cc1cc(C)nc(SCCc2ccncc2)n1 | 5% | -21% | -2.4% | -25% | -20% | 12% | 0% | -5%
COc1cc(C(=O)N(Cc2ccc(C)o2)C2CCS(=O)(=O)C2)cc(OC)c1OC (centres undefined) | 21%[46.1 µM] | 2% | . | 7%[46.1 µM] | . | 2% | -2% | 15%
Cc1noc(C)c1C(=O)N(CC(=O)Nc1ccccc1Br)Cc1ccco1 | 17% | -1% | . | -5% | . | . | 4% | -13%
CCCN(CC1CC1)C(=S)Nc1ccc(Oc2ccccc2)cc1 | ? | -15% | -8.1% | -2% | 5% | 8% | 8% | 0%
O=C(NCC(=O)N(Cc1ccco1)C(C(=O)NC1CCCC1)c1cccnc1)c1ccco1 (centres undefined) | -8% | -1% | . | 7% | . | . | . | -5%
CC(=NNC(=S)SCc1ccccc1)c1ccccn1 | 1.6µM* | 37% | . | 0.89µM* | . | . | . | ?
CCCCCCn1c(NCC)nc2c1c(=O)n(C)c(=O)n2C | ? | -9% | 7.1% | ? | -7% | -11% | 2% | ?
COc1cc(OC)c(NC(=O)C2CCN(S(=O)(=O)c3ccc4c(c3)CC(C)N4C(C)=O)CC2)cc1Cl (centres undefined) | . | 0% | . | . | . | 7% | 9% | ?
Cc1cc2nnc(SCC(=O)NCC(c3ccccc3)N(C)C)n2c2ccccc12 (centres undefined) | 3% | 7% | . | -2% | . | 14% | 2% | -4%
Cc1cnc(NC(=O)Cc2ccccc2F)s1 | 15%[46.1 µM] | 11% | . | ? | . | -5% | -1% | 26%
Cc1ccc(NC(=O)CSc2nccn2Cc2ccco2)cc1Cl | 13%[46.1 µM] | . | -8.3% | . | -4% | . | . | 54%[activator]
COc1ccc(CNC(=O)/C=C/c2ccc(OCCCF)cc2)cc1OC | -8% | 34% | -2.8% | -29%[46.1 µM] | ? | -5% | -5% | 0%
O=C(Cn1c2ccc(F)cc2c2nc3n(c(=O)c21)CCS3)NC1CCCC1 | 11%[46.1 µM] | -7% | . | -4%[46.1 µM] | . | ? | 3% | -28%
CC(=O)Nc1ccc(S(=O)(=O)N2CCC(C(=O)O)CC2)cc1 | 16%[46.1 µM] | 9% | . | 5%[46.1 µM] | . | . | -1% | 25%
Cc1cc(C)nc(N(C#N)Cc2ccccc2Cl)n1 | . | -4% | -4.7% | . | 1% | -13% | -2% | 5%
CCOC(=O)c1sc(=S)n(-c2ccccc2)c1SC | 1% | 12% | 0.7% | 5% | 0% | -14% | 3% | -14%
Cc1ccc(CNCc2ccc3c(c2)n(C)c(=O)n3C)cc1 | ? | . | -0.4% | 4%[46.1 µM] | 0% | . | . | -8%
COc1ccc(NC(=O)N(CCN2CCCC2)Cc2cc3cc(OC)c(OC)cc3[nH]c2=O)cc1 | -3% | -10% | -4.7% | -26%&-26% | -1% | 0% | 4% | 0%
COc1ccc(/C(C)=N/NC(=O)Cn2nc([N+](=O)[O-])cc2C)cc1 | 6% | 14% | . | 14%[46.1 µM] | . | 3% | 1% | -3%
Cc1c(CCO)c(=O)n(C)n1C(=O)c1ccc(Cl)cc1 | -1% | 0% | 0.0% | ? | -1% | -3% | -3% | 11%
O=S(=O)(CCN1CCN(C(c2ccccc2)c2ccccc2)CC1)C(F)(F)F | 8% | 2% | -14% | ? | 9% | -77% | -2% | -13%
Cc1ccc(N2C(=O)c3n[nH]c(C)c3C2c2ccco2)cc1 (centres undefined) | 13% | -2% | 3.0% | 8%&29% | 0% | -9% | -5% | 29%
Cc1ccc(S(=O)(=O)N2CCN(C)CC2)c2nsnc12 | -19%[46.1 µM] | 12% | . | 6%[46.1 µM] | . | 1% | 3% | 1%
c1cc(-n2cnnn2)ccc1NC1=NCCC1 | 20% | 15% | -1.9% | 2% | -9% | -2% | 24% | -6%
NC(=O)CC(NC(=O)Cc1cccc2ccccc12)c1ccc(N2CCC(Cc3ccccc3)CC2)c([N+](=O)[O-])c1 (centres undefined) | . | -9% | . | . | . | -5% | -7% | -3%
O=C(/C=C/c1cccc([N+](=O)[O-])c1)N1CCOCC1 | -2% | -11% | -1.3% | ? | -8% | 9% | -11% | 11%
O=c1[nH]c2cc(Br)cnc2nc1/C=C(\O)c1ccc(F)cc1 | -30% | 4% | 3.8% | -2% | 25µM* | -3% | -17% | .
COc1ccccc1C(=O)Oc1ccccc1C(=O)Nc1ccccc1 | . | -7% | . | . | . | -8% | -3% | 38%[activator]
CCNCC(O)COCC(O)CNCC (centres undefined) | -6% | -8% | 0.8% | 0%[46.1 µM] | -2% | 10% | -2% | -11%
O=C(CC1C(=O)NCCN1Cc1cccc(C(F)(F)F)c1)NCCCOc1cccnc1 (centres undefined) | 0%[46.1 µM] | 1% | . | -3%[46.1 µM] | . | 3% | 5% | 8%
CC(C)OC(=O)c1ccc(N2CCN(c3ccccc3F)CC2)nc1 | . | -22% | . | . | . | 1% | 1% | -19%

Next section, starting with the last 2 of the part before.
SMILES | Lassa entry inh | RE007 growth inh | Cruzain Triton | MARV entry inh | Cruzain noTriton | NS1 inh | SARS PLP yeast | 2A StopGo
O=C(CC1C(=O)NCCN1Cc1cccc(C(F)(F)F)c1)NCCCOc1cccnc1 (centres undefined) | 0%[46.1 µM] | 1% | . | -3%[46.1 µM] | . | 3% | 5% | 8%
CC(C)OC(=O)c1ccc(N2CCN(c3ccccc3F)CC2)nc1 | . | -22% | . | . | . | 1% | 1% | -19%
O=C(N/N=C/c1ccc(O)cc1O)C(=O)N/N=C/c1ccc(O)cc1O | -12%[46.1 µM] | -2% | . | ? | . | 10% | 6% | 3%
O=C(c1cccc(Cl)c1)C1CCCN(C(=O)c2ccc3c(c2)OCO3)C1 (centres undefined) | . | 0% | . | . | . | -20% | 0% | 1%
CC(C)Oc1cccc(C(=O)N/N=C/c2coc3ccccc3c2=O)c1 | 2%[46.1 µM] | -9% | . | 0%[46.1 µM] | . | 13% | 21% | -17%
CCC(=NCCCn1ccnc1)c1c(O)n(-c2ccc(OC)cc2)c(=O)[nH]c1=O | 0% | 14% | . | 17% | . | 3% | 0% | -13%
Nc1nonc1C(=O)NCCNCc1ccccc1 | 22% | -6% | 2.0% | -18% | -5% | 3% | 2% | 4%
CCC(C)N(C(=O)COC(=O)c1ccc(=O)n(Cc2ccccc2)n1)C1CCS(=O)(=O)C1 (centres undefined) | ? | -14% | . | ? | . | . | -2% | -16%
Cc1ccccc1NC(=O)C(=O)NCC(c1ccc2c(c1)OCO2)N1CCN(c2ccccc2)CC1 (centres undefined) | 10µM* | . | 0.0% | . | -6% | . | . | -11%
COc1cccc(NC(=O)C2CCN(S(=O)(=O)c3cc(-c4noc(C)n4)ccc3C)CC2)c1 | ? | . | -1.2% | . | ? | . | . | ?
CCOc1ccc(S(=O)(=O)NCC2CCCO2)cc1NC(=O)c1ccccc1F (centres undefined) | 0% | -6% | . | -6%[46.1 µM] | . | 17% | 7% | 45%[activator]
CCOc1ccc(N(CC(=O)NC2CCCC2)C(=O)Cn2nnc(-c3ccc(C)o3)n2)cc1 | -21%[46.1 µM] | -11% | . | -18%[46.1 µM] | . | 3% | 3% | -3%
Cc1cc(C)n(-c2nc(-c3cccc(Cl)c3)cs2)n1 | 14% | -6% | -5.2% | ? | 10% | -7% | -8% | 22%
Cc1ccc(S(=O)(=O)ON2C(=O)c3ccccc3C2=O)c(C)c1 | ? | 2% | 13µM* | ? | 16µM* | 11% | -20% | ?
CC(C)(C)/C=N/NC(=O)C1CC1 | . | 14% | . | . | . | 2% | 0% | -5%
Cc1ccc(OCCNC(=O)C2CC(=O)N(Cc3ccccc3)C2)cc1 (centres undefined) | ? | 1% | . | 2% | . | . | 1% | -12%
O=C(c1ccc(NC2=NC3CS(=O)(=O)CC3S2)cc1)N1CCN(c2ccccc2)CC1 (centres undefined) | . | 10% | . | . | . | 0% | 3% | 5%
CCCc1ccc2oc(C(=O)N3CCN(CCC(N)=O)CC3)c(C)c2c1 | -13%[46.1 µM] | -5% | . | ? | . | 4% | -9% | 3%
CCCCCCCCNC(=O)/C(C#N)=C/c1ccc(SC)cc1 | 1% | . | -5.9% | -3% | -8% | 3% | -4% | -20%
COc1ccc(-c2nc(=S)c3ccc4ccccc4c3[nH]2)cc1 | 17% | -12% | . | 0%[46.1 µM] | . | 9% | 0% | -10%
O=C1CN(C(=O)CC2c3ccccc3-c3ccccc32)CC(=O)N1 | 26% | 9% | 4.4% | ? | 0% | -16% | -4% | 6%

Source: PubChem
